Source: PubChem
MT1-MMP act inh – blocks activation of human MT1-MMP | HT1080 RFP-PRO-GFP cells, GFP/RFP ratio fluorescence, overnight; percent of plate control window, DMSO zero | AID 651647 | GFP/RFP ratio change, % at 20 µM | 360,000 compounds, 0.061% hits;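 active = GFP/RFP ratio change of at least 30% with cell ATP level not reduced by more than half and red fluorescence within 50% of control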; also: strong numbers were not always called active
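Assay system: HT1080 RFP-PRO-GFP cells. Benchmarks: DMSO vehicle wells and RFP-L50D-GFP reporter cell wells. Times: overnight cell settling, then overnight compound exposure, 37 °C, 5% CO2. Compound: 20 µM single dose, 1% DMSO. Read-out basis: GFP/RFP fluorescence ratio.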
UUG fidelity – yeast start codon fidelity modulation. S. cerevisiae UUG-firefly luciferase reporter, luminescence/redox ratio. activity score, % at 18.7 µM. 350,000 compounds, 0.13% hits. AID 602363;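 active = replicate mean at a twofold rise or more, about +100% in these data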;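 also: firefly luciferase made from a UUG start codon reports start codon fidelity; reporter light over untreated wells divided by growth signal over untreated wells; some hits fall short of that in this replicate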
MT1-MMP act inh RFP – recorded beside MT1-MMP act inh, whose call it bears; RFP signal change, %; measured here: RFP expression control read;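 0 = vehicle wells; hits needed this value within 50% of zero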
Starred values were filed as active, the others as inactive.

Start of the data: the first two records (preview)
SMILES | MT1-MMP act inh | MT1-MMP act inh RFP | UUG fidelity
COc1ccc(OC)c(/C=N/NC(=O)c2ccc[n+](CC(=O)c3ccccc3)c2)c1 | -1 | 1 | -3
O=Cc1c[nH]c2ccc(NC(=O)OCc3ccccc3)cc12 | 13 | 0 | -7

The list itself, previewed entries included:
SMILES | MT1-MMP act inh | MT1-MMP act inh RFP | UUG fidelity
COc1ccc(OC)c(/C=N/NC(=O)c2ccc[n+](CC(=O)c3ccccc3)c2)c1 | -1 | 1 | -3
O=Cc1c[nH]c2ccc(NC(=O)OCc3ccccc3)cc12 | 13 | 0 | -7
CCCC(=O)N1CCCC1(C)C(=O)Nc1cc(OC)c(OC)c(OC)c1 (stereo not given) | -1 | 2 | -17
CC1C(=O)N(Cc2cn(CC3CCCCC3)nn2)CCS(=O)(=O)N1Cc1ccc(-c2ccc(Cl)cc2)cc1 (stereo not given) | 40* | 11* | -4
COc1ccc(C(=O)OCC(=O)N2CCN(S(=O)(=O)c3ccc(C)cc3)CC2)cc1[N+](=O)[O-] | 0 | 4 | -2
CC1(C(=O)NS(=O)(=O)c2ccc(Br)cc2)CCN1C(=O)CCC1CCCC1 (stereo not given) | -4 | -4 | -1
Cn1c(SCC(=O)N2CCCC2=O)nc2ccccc2c1=O | -2 | -2 | -12
CC(O)C(NS(=O)(=O)c1ccc2ccccc2c1)C(=O)OCC(=O)Nc1ccccc1OC(F)F (stereo not given) | 1 | 1 | -9
C[C@@H](NC(=O)c1ncn2c1C(=O)NC[C@@H]2C)c1ccccc1 | -2 | 0 | 11
CC(C)(C)c1ccc(C(=O)C2CC2)cc1 | 7 | 1 | -8

Reformatted with two lines to a compound: 5 of the compounds above.
Value order – MT1-MMP act inh | MT1-MMP act inh RFP | UUG fidelity
Cn1c(SCC(=O)N2CCCC2=O)nc2ccccc2c1=O
 : -2 | -2 | -12
CC(O)C(NS(=O)(=O)c1ccc2ccccc2c1)C(=O)OCC(=O)Nc1ccccc1OC(F)F (stereo not given)
 : 1 | 1 | -9
C[C@@H](NC(=O)c1ncn2c1C(=O)NC[C@@H]2C)c1ccccc1
 : -2 | 0 | 11
CC1C(=O)N(Cc2cn(CC3CCCCC3)nn2)CCS(=O)(=O)N1Cc1ccc(-c2ccc(Cl)cc2)cc1 (stereo not given)
 : 40* | 11* | -4
CCCC(=O)N1CCCC1(C)C(=O)Nc1cc(OC)c(OC)c(OC)c1 (stereo not given)
 : -1 | 2 | -17

Next section
SMILES | MT1-MMP act inh | MT1-MMP act inh RFP | UUG fidelity
CC1CCCCC12NC(=O)N(CC(=O)NCCc1ccc(F)cc1)C2=O (stereo not given) | 4 | -1 | -12
O=[N+]([O-])c1ccc(CN2CC(N3CCN(CC4CC4)CC3)CS2(=O)=O)cc1 (stereo not given) | 3 | 5 | -5
CC1(NC(=O)CCS(=O)(=O)c2ccc(Cl)cc2)CCS(=O)(=O)C1 (stereo not given) | 2 | 3 | -2
CC1CN(C(=O)c2ccccc2OCc2ccccc2Cl)CC(C)O1 (stereo not given) | 2 | 2 | -7
COc1cccc(NC(=O)COC(=O)c2c(C)noc2C)c1 | 1 | 2 | -7
CON=C1C=C(C)C(=O)C(C)=C1C | 0 | 3 | -9
Cc1cc(=O)oc2cc(OC(C)C(=O)N3CCOCC3)c(Cl)cc12 (stereo not given) | 12 | 10 | -15
O=C(CNC(=O)c1ccccc1F)NCC(c1cccs1)N1CCOCC1 (stereo not given) | -1 | 3 | -16
COc1ccc(S(=O)(=O)NC(=O)C2(C)CCN2C(=O)c2ccc(C(F)(F)F)nc2C)cc1 (stereo not given) | -7 | 6 | 5
CCOc1ccc(C(=O)N2CCN(CC(=O)N3CCCC3)CC2)cc1OCC | -1 | 4 | -9
CC(C)C(NC(=O)c1c(F)cccc1F)C(=O)OCN1C(=O)c2ccccc2C1=O (stereo not given) | 1 | 4 | -4
CC1(C)CN(c2ccc(Br)cc2)C(=O)[C@H]1CC(=O)Nc1ccccc1 | -5 | -22 | 3
COc1cccc(CNC(=O)c2ccc(Cl)c(S(=O)(=O)N3CCOCC3)c2)c1 | -4 | -4 | 6
Cc1cccc(C)c1OCC(=O)NCC1COc2ccccc2O1 (stereo not given) | 3 | 4 | 13
CCc1ccc(C(=O)Nc2ccc(OC)c(S(=O)(=O)N3CCCCC3)c2)cc1 | 20 | -23 | -10
Cc1cc(=O)oc2cc(NC(=O)COc3ccccc3[N+](=O)[O-])ccc12 | 7 | 3 | -11
O=C(CCc1nc2ccccc2c(=O)[nH]1)NCCN1C(=O)S/C(=C\c2ccc(OC(F)F)cc2)C1=O | -3 | -4 | -13
COc1cc2nc3n(c(=O)c2cc1OC)-c1ncccc1C(=O)NC3Cc1ccccc1 (stereo not given) | 1 | 4 | 7
CCCN(C(=O)c1c(-c2ccccc2)noc1C)c1c(N)n(Cc2ccccc2)c(=O)[nH]c1=O | 0 | 1 | 4
CCOC(=O)c1c(NC(=O)COC(=O)c2ccccn2)sc(C)c1C | -4 | 1 | -8
Cc1nc2ccc(NS(=O)(=O)c3ccc(F)cc3F)cc2s1 | -9 | -20 | -14
COc1ccc(-c2csc(NC(=O)CCNC(=O)c3ccco3)n2)cc1OC | -2 | -1 | -1
Cc1ccc(C(=O)O)c(NC=O)c1OCc1ccccc1 | 1 | 2 | -9
C[C@H](NC(=O)C1CCN(C(=O)[C@@H]2CCCN2C(=O)OC(C)(C)C)CC1)C(=O)NCc1ccc(F)cc1 | 3 | 10 | -2
COc1ccc(CN2CCC[C@]3(N[C@H](c4ccc(C(F)(F)F)cc4)[C@@H]4C(=O)N(C)C(=O)[C@@H]43)C2=O)cc1 | 8 | -3 | -25
Cc1c[n+]([O-])cc(C)c1[N+](=O)[O-] | 7 | 0 | -7
CCC(NC(=O)CCC(=O)N1CCN(S(=O)(=O)c2ccc(C)cc2)CC1)c1ccc(C)cc1 (stereo not given) | -2 | -6 | 5
Cc1sc2nc(CN3CCCC3)nc(N3CCN(S(=O)(=O)c4cccc(F)c4)CC3)c2c1C | -1 | 3 | -9
O=c1ccn(C2CCCO2)c(=O)[nH]1 (stereo not given) | 1 | 2 | -8
Cc1ccc(OCCC(=O)NNC(=O)c2ccccc2F)cc1 | -4 | 6 | -17

7 compounds from above, showing only UUG fidelity and MT1-MMP act inh RFP:
canonical_smiles	UUG fidelity	MT1-MMP act inh RFP
COc1cccc(CNC(=O)c2ccc(Cl)c(S(=O)(=O)N3CCOCC3)c2)c1	6	-4
O=c1ccn(C2CCCO2)c(=O)[nH]1 (stereo not given)	-8	2
CC(O)C(NS(=O)(=O)c1ccc2ccccc2c1)C(=O)OCC(=O)Nc1ccccc1OC(F)F (stereo not given)	-9	1
O=Cc1c[nH]c2ccc(NC(=O)OCc3ccccc3)cc12	-7	0
C[C@H](NC(=O)C1CCN(C(=O)[C@@H]2CCCN2C(=O)OC(C)(C)C)CC1)C(=O)NCc1ccc(F)cc1	-2	10
C[C@@H](NC(=O)c1ncn2c1C(=O)NC[C@@H]2C)c1ccccc1	11	0
CCc1ccc(C(=O)Nc2ccc(OC)c(S(=O)(=O)N3CCCCC3)c2)cc1	-10	-23

The results go on:
SMILES | MT1-MMP act inh | MT1-MMP act inh RFP | UUG fidelity
COc1ccc(N2CCN(CCCn3cnc4c(SC)ncnc43)CC2)cc1 | 4 | 3 | -7
CC(OC(=O)CCNS(=O)(=O)c1cccs1)C(=O)Nc1ccc(S(N)(=O)=O)cc1 (stereo not given) | -1 | 0 | 7
CN(CC(=O)Nc1cccc(F)c1)C(=O)/C=C/c1ccc(S(=O)(=O)N2CCCCCC2)cc1 | -2 | -3 | 24
Cc1nn(-c2ccccc2)c(C)c1C(=O)OCC(=O)Nc1ccccc1C(F)(F)F | 2 | -5 | -15
OCC[C@@H]1C[C@H](O)[C@@H](O)[C@@]2(OCCCc3cc(C(F)(F)F)ccc32)O1 | 2 | 6 | 11
O=C(CN(c1ccc(Br)cc1)S(=O)(=O)c1ccc(Cl)c([N+](=O)[O-])c1)NCC1CCCO1 (stereo not given) | -5 | -8 | -18
Cc1ccc(NC(=O)COc2cccc(Oc3ccccc3)c2)cc1S(=O)(=O)N1CCOCC1 | 1 | -13 | -4
CCCS(=O)(=O)NC(=O)C1(C)CCN(C(=O)/C=C/c2ccccc2)C1 (stereo not given) | -3 | 3 | -18
Cc1cc2c(=O)n(C)c(SCC(=O)Nc3ccc(F)cc3)nc2s1 | -1 | 0 | -7
CN(C)S(=O)(=O)c1ccc(N2CCCC2)c(C(=O)N2CCN(S(=O)(=O)c3ccc(F)c(F)c3)CC2)c1 | -2 | 2 | 0

Sorted by molecular weight (rising): part of the list above
SMILES | MT1-MMP act inh | MT1-MMP act inh RFP | UUG fidelity
Cc1cc2c(=O)n(C)c(SCC(=O)Nc3ccc(F)cc3)nc2s1 | -1 | 0 | -7
CCCS(=O)(=O)NC(=O)C1(C)CCN(C(=O)/C=C/c2ccccc2)C1 (stereo not given) | -3 | 3 | -18
CC(OC(=O)CCNS(=O)(=O)c1cccs1)C(=O)Nc1ccc(S(N)(=O)=O)cc1 (stereo not given) | -1 | 0 | 7

(next part)
SMILES | MT1-MMP act inh | MT1-MMP act inh RFP | UUG fidelity
CC(=O)c1ccc(NS(=O)(=O)c2ccc3c(c2)CCC(=O)N3)cc1 | 3 | 6 | -9
CCc1ccc(CNCCNC(=O)c2ccco2)cc1 | -3 | 3 | -13
Cc1cccc(C(=O)NC2CC3CCC(C2)N3C)c1 (stereo not given) | -2 | 0 | -18
O=C(COC(=O)CSc1ccc(F)cc1)NCc1ccco1 | 1 | 5 | 7
Cc1cc(Br)ccc1SCC(=O)NNC(=O)c1ccco1 | -1 | 5 | -6
Cc1ccc(CN2CC(C(=O)Nc3ccc(C)c(S(=O)(=O)N4CCCCC4)c3)CC2=O)cc1 (stereo not given) | 4 | -25 | -9
O=C1NC(=O)C(c2ccccc2)(C2CCCC2)N1 (stereo not given) | -1 | -3 | 2
O=C(COC(=O)/C=C/c1ccc(Cl)c(Cl)c1)NC1CCCC1 | 3 | -1 | -21
COc1ccc(-c2nc3ccc(C)cn3c2Cc2ccsc2)cc1OC | -4 | -4 | 41
Cc1ccccc1NC(=O)COC(=O)c1ccc(S(=O)(=O)N2CCCC2)cc1 | 0 | 5 | 5
Cc1cc(NC(=O)c2cc3ccccc3o2)no1 | 5 | 1 | -21
CCN1CCN(C(=O)c2ccc(Cl)c(S(=O)(=O)N(C)c3ccccc3)c2)CC1 | 2 | 0 | -18
CC(NC(=O)Cc1ccc(S(=O)(=O)N2CCCCC2)cc1)c1ccccc1 (stereo not given) | -4 | 3 | -7
COC12CC(=O)C(C(C)=O)=C(O)C1(C)c1c(O)c(C)c(O)c(C(C)=O)c1O2 (stereo not given) | 3 | 3 | -5
Cc1onc(-c2c(F)cccc2Cl)c1C(=O)OCC(=O)N(C)c1ccccc1 | -4 | 0 | 42
CN(Cc1cnn(Cc2ccccc2)c1)C(=O)c1cccc(S(=O)(=O)N2CCOCC2)c1 | -4 | -16 | -17
CN(C)C(=S)Oc1ccccc1C1(C)OCCO1 | 1 | 3 | -3
NC(=O)c1c(NC(=O)c2ccc(N3C(=O)CCC3=O)cc2)sc2c1CCCC2 | 8 | -1 | -14
COc1ccc(N2CCN(C(=O)C(Cc3ccccc3)NC(=O)c3ccccc3)CC2)cc1 (stereo not given) | -5 | -6 | -20
O=C(COC(=O)/C=C/c1cccc(Cl)c1Cl)Nc1ccc2[nH]c(=O)[nH]c2c1 | 17 | -4 | -20
O=C(NCc1ccccn1)C1CCCN(S(=O)(=O)c2cc(Cl)ccc2Cl)C1 (stereo not given) | 16 | -11 | -8
CCCN(Cc1nnc(-c2cccs2)o1)C(=O)c1cccc(S(=O)(=O)N2CCOCC2)c1 | -3 | -1 | -3
NC(=O)C1CCN(CC(=O)Nc2cc(S(=O)(=O)N3CCOCC3)ccc2N2CCCC2)CC1 | -3 | 0 | -19
CC1CCN(C(=O)C2COc3ccccc3O2)CC1 (stereo not given) | -2 | 1 | -22
Cn1c(=O)c2c(n(C)c1=O)n(C)c(=O)n2C | 0 | 2 | -10
COc1cc(OC)c(OC)cc1CNC(=O)c1ccc(S(=O)(=O)N2CC(C)OC(C)C2)cc1 (stereo not given) | 5 | 0 | -12
COc1ccc(S(=O)(=O)N2CCCCC2)cc1NC(=O)c1[nH]c(C)c(C(C)=O)c1C | 8 | 9 | -2
C#CCOCCOCCOCCNc1nc(N2CCN(C(=O)C([C@@H](C)O)n3cc([C@@H](N)CCCCN)nn3)CC2)nc(N2CCN(C(=O)[C@H](CCCN=C(N)N)n3cc(C(N)[C@@H](C)CC)nn3)CC2)n1 (stereo not given in full) | -7 | 5 | 44
CCOC(=O)C1=CCN(S(=O)(=O)c2ccccc2C(=O)OC)C1c1ccc(Cl)cc1 (stereo not given) | 1 | 3 | -4
O=C(CSc1n[nH]c(-c2ccccc2F)n1)Nc1cc(F)ccc1F | 3 | 0 | -9
O=C(NCCCCNCCCNC(=O)c1ccccc1)c1ccccc1 | -3 | 4 | -8
Clc1ccc2nc(-c3ccccc3)c(Cc3ccsc3)n2c1 | -5 | 0 | -15
COc1ccc(CCC(=O)Nc2ccc(N3CCOCC3)c(S(=O)(=O)Nc3ccc(OC)cc3)c2)cc1 | -1 | -5 | -8
CC(OC(=O)c1cccc(S(=O)(=O)N2CCOCC2)c1)C(=O)NC1CCCCC1C (stereo not given) | -3 | -2 | -10

Some of the compounds tested. The share of hits here may be higher or lower than overall.
